# D2 ag: human D2 receptor agonism in beta-arrestin assay. DiscoveRx PathHunter D2 beta-arrestin, luminescence, 90 min; 100% = 57 uM dopamine signal. activation, % (test concentration not listed). 360,000 tested, 0.084% active; in the data active = activation above about 40%; inconclusive = about 15% to 40%; inactive = below about 15%; also: compound concentration not given in the record; the text of the record calls up to 30% inactive
#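 Agonist mode: compounds alone added to overnight-plated D2 PathHunter cells for 90 min at 37 C, with 57 uM final dopamine (EC100) defining full response. Beta-arrestin recruitment detected by chemiluminescent reagent, read after 1 h at ambient temperature.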
# PINK1 modulator: changes PINK1 expression | Potency, µM (highest dose often 76.6 µM), for inactives: at the highest dose activation (PINK1 increase), most hits filed as activators | 410,000 tested, 0.2% active | PINK1 immunofluorescence, high-content cytometry, 24 h; active = well fitted activation curve with a large enough effect; inconclusive = small, poorly fitted or top-dose-only effect; inactive = flat fitted curve, though single readings scatter; cell line not stated here;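 also: potency is read from the fitted curve at half-maximal effect; % of control where 0% means no effect; nearly all actives have a fitted effect of over 65% in size; a mitochondrial uncoupler was the plate control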
#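 PINK1 protein level read as immunofluorescence by microplate cytometer in a fixed, stained stable cell line after 24 h exposure to five compound concentrations, with CCCP as control.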
# TRPML1 ag: agonists of human TRPML1 channel; Q9GZU1; TRPML1-expressing cells, Ca2+ dye fluorescence, FDSS; host cell line not named in the record; reference of the full effect not given here; activation, % (test concentration not listed); 410,000 tested, 0.12% active; AID 624414; in the data active = activation above about 50%; inconclusive = about 30% to 50%; inactive = below about 30%; also: 0% is about no effect; the text of the record puts the active cut at 80%
#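 Agonist activity was taken from a 110 s kinetic Ca2+ dye read on the FDSS after pinning compounds onto TRPML1-DL cells. The cells were seeded at 1,500/well with Tet inducer, incubated about 16 h, then dye-loaded at room temperature.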
# Six1-Eya2 inh: Six1/Eya2 interaction inhibition | AlphaScreen GST-Six1/His-Eya2 binding, biochemical; stronger effect = lower value; control for the full effect not named in the record | activity change, % (test concentration not listed) | Q15475+O00167 | 360,000 tested, 0.56% active; in the data active = activity change below about -65%; inconclusive = about -30% to -65%; inactive = above about -30%; also: % is scaled to controls: 0 for no effect and ±100 for the full control effect; compound concentration not given in the record
# Target sequence (O00167 whole entry, looked up): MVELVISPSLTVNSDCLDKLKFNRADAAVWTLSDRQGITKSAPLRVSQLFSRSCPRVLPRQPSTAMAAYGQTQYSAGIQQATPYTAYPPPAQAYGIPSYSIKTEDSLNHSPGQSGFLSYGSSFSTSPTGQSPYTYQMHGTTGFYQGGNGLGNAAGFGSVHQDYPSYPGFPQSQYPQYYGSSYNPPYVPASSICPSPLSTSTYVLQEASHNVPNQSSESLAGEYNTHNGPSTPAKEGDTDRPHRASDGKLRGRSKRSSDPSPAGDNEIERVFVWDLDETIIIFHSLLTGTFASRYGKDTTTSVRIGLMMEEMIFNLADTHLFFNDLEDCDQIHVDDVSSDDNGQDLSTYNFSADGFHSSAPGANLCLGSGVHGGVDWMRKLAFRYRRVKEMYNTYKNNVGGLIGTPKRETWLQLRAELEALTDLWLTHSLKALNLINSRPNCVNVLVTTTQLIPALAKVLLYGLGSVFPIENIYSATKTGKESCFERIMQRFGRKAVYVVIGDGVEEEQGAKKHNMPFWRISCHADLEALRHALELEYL
# Target sequence (Q15475 whole entry, looked up): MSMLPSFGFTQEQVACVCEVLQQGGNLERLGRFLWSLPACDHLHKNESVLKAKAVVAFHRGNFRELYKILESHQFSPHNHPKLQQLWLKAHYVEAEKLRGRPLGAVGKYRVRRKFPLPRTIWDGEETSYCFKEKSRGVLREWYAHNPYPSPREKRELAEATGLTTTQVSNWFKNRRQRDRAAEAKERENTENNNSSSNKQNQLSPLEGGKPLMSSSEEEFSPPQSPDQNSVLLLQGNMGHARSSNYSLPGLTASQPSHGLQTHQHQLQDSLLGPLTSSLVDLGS
#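 AlphaScreen with GST-Six1 and His-Eya2 (5X mix: 250 nM and 500 nM), glutathione donor and nickel acceptor beads; buffer 50 mM Tris pH 8.0, 300 mM NaCl, 1 mM TCEP; 1 h at 37 C in the dark.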
# D2 potentiator: positive allosteric modulators of human D2 dopamine receptor | P14416 | DiscoveRx D2 beta-arrestin cells, luminescence, 90 min; 100% = 57 uM dopamine signal | potentiation, % (test concentration not listed) | 360,000 tested, 0.23% active; active = potentiation of 50% or more; inconclusive = 30% to 50%; inactive = 30% or less;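 also: compound concentration not given in the record; tested on top of an EC20 dose of dopamine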
#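 D2 cells co-treated with compound plus 50 nM dopamine (EC20) for 90 min at 37 deg C to detect potentiation. Beta-arrestin recruitment was read as enzyme-fragment luminescence after 1 h at ambient temperature. Full response was set by 57 uM dopamine.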
# CtBP-E1A inh: CtBP/E1A binding inhibition; AlphaScreen GST-E1A/His-CtBP binding, 1536-well; stronger effect = lower value; control for the full effect not named in the record; activity change, % (no concentration beside the values); 340,000 tested, 0.49% active; AID 651724; in the data active means activity change below about -65%; inconclusive means about -30% to -65%; inactive means above about -30%; also: % is scaled to controls: 0 for no effect and ±100 for the full control effect; compound concentration not given in the record
#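 GST-E1A and His-tagged CtBP (125 nM each as 5X stock) were preincubated with pin-transferred compound for 2 h at 37 °C in the dark, then glutathione donor and nickel acceptor beads were added for 1 h before AlphaScreen reading.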
# * = called active by the depositor; ? = inconclusive; . = not tested or not shown; [ ] = remark or other dose. Rows were taken by chance, and some 1.3% of all compounds hit somewhere here.
SMILES,D2 ag,PINK1 modulator,TRPML1 ag,Six1-Eya2 inh,D2 potentiator,CtBP-E1A inh
N#Cc1ccc(-c2csc(NC(=O)c3ccc(S(=O)(=O)N4CCc5ccccc5C4)cc3)n2)cc1,-6.3,1.1%,-0.4,-16,-10,38
N#CCSc1nnc(Nc2ccccc2)s1,-0.9,0.6%[38.3 µM],-0.5,-2,-7,-5
O=C(Nc1ccccc1C(=O)NC(Cc1c[nH]c2ccccc12)C(=O)O)c1ccccc1 (configuration not stated),-2.2,0.2%,0.2,4,8,-6
Nc1cc(S(=O)(=O)N2CCCCC2)ccc1N1CCOCC1,0.2,-1.4%,0.7,2,4,0
CC(C)(C)CCN1CCC(CN2CCNC2=S)CC1,0.3,-0.7%,0.6,8,-8,-4
CCC(=O)N1c2ccccc2NC2=C(C(=O)CC(c3ccco3)C2)C1c1ccco1 (configuration not stated),-2.4,3.3%,5.7,-9,-9,-6
CC(=O)c1ccc(NC(=O)NNS(=O)(=O)c2ccc(F)cc2)cc1,-4.8,1.5%,-0.4,10,7,5
CCCCN(Cc1ccco1)S(=O)(=O)c1c[nH]c(C(=O)OC)c1,-1.8,3.1%,0.9,0,-3,3
CN(C)S(=O)(=O)c1cc(NC(=O)CNCCN2CCOCC2)ccc1Cl,-4.0,0.4%,-0.9,16,-17,.
CCOC(=O)c1c(C)[nH]c(NC(=O)NNC(=O)c2ccc(OC)cc2)c1C,-1.9,0.2%,0.5,-1,-1,-7
CCOC(=O)C1=C(C#N)C(C(=O)OCC)c2ncccc21 (configuration not stated),-1.8,1.4%,-0.1,-3,-8,-11
CN(CC(=O)Nc1ccc(N2CCOCC2)cc1)C(=O)COc1ccccc1F,-3.0,1.2%,0.2,7,-5,3

# Next section (six carried over from the part before).
SMILES,D2 ag,PINK1 modulator,TRPML1 ag,Six1-Eya2 inh,D2 potentiator,CtBP-E1A inh
CC(=O)c1ccc(NC(=O)NNS(=O)(=O)c2ccc(F)cc2)cc1,-4.8,1.5%,-0.4,10,7,5
CCCCN(Cc1ccco1)S(=O)(=O)c1c[nH]c(C(=O)OC)c1,-1.8,3.1%,0.9,0,-3,3
CN(C)S(=O)(=O)c1cc(NC(=O)CNCCN2CCOCC2)ccc1Cl,-4.0,0.4%,-0.9,16,-17,.
CCOC(=O)c1c(C)[nH]c(NC(=O)NNC(=O)c2ccc(OC)cc2)c1C,-1.9,0.2%,0.5,-1,-1,-7
CCOC(=O)C1=C(C#N)C(C(=O)OCC)c2ncccc21 (configuration not stated),-1.8,1.4%,-0.1,-3,-8,-11
CN(CC(=O)Nc1ccc(N2CCOCC2)cc1)C(=O)COc1ccccc1F,-3.0,1.2%,0.2,7,-5,3
O=C(COC(=O)c1cc(=O)[nH]c2ccccc12)NCc1ccccc1,-2.0,-1.4%,-0.4,-4,0,6
Cc1cc(NC(=O)c2ccccc2C)ccc1NC(=O)c1ccccc1Cl,1.4,5.6%,-1.3,-3,-5,.
O=C(O)CCC(=O)NNC(=O)COc1ccc2ccccc2c1Br,5.1,-0.5%,2.7,-9,-4,.
CCOCCCNC(=O)c1ccc(OC)cc1,-3.4,-1.8%,0.0,6,2,13
CCOC(=O)C1(CCOC)CCN(Cc2ccncc2)CC1,-2.3,4.3%,0.5,-1,-6,4
O=C(CC1(O)C(=O)Nc2ccc(Br)cc21)c1ccccc1 (configuration not stated),-7.4,7.8%,.,-3,.,-9
O=C(c1ccc([N+](=O)[O-])cc1)N1CCN(C(=O)c2cccs2)CC1,0.4,0.0%,-0.3,5,-8,17
COc1ccccc1/C=C/C(=O)NCC(=O)N/N=C(/C)c1ccc(Cl)cc1,-0.6,5.5%,2.3,2,-14,.
O=C(NCc1nc2ccccc2[nH]1)C1=C[C@@H](c2ccc(Br)cc2)C[C@@H](OCc2ccc(CO)cc2)O1,2.7,-0.3%,0.1,2,-30,-10
O=C(NCc1ccc2c(c1)OCO2)c1cccc2c1C(=O)N(C1CCCCC1)C2,-7.0,3.0%,0.4,4,-4,7
CCC(=O)Nc1ccc(C(=O)CSc2nnc(-c3cccnc3)o2)cc1,-0.6,-1.4%,0.7,-1,14,2
CC1CCCN(Cc2nc3c(c(=O)n(C)c(=O)n3C)n2CCCc2ccccc2)C1 (configuration not stated),-2.5,0.4%,-0.2,1,-8,-1
O=C(Nc1ccc(C(=O)O)cc1)/C(=C\c1ccc([N+](=O)[O-])cc1)NC(=O)c1ccc(Br)cc1,1.1,-0.2%,0.1,-9,-6,-1
CCOC(=O)C1CCN(C(=O)c2cccc(S(=O)(=O)N(C)C3CCCCC3)c2)CC1,-7.7,-1.2%,-0.4,-1,-18,2
Cc1cc([N+](=O)[O-])cc2c1NC(c1ccccn1)C1CC=CC21 (configuration not stated),3.9,-0.3%,-0.2,-21,4,-10
COc1ccc(/C=C/C(=O)NCCCc2ccccc2)cc1OC,-0.3,0.3%,1.0,2,-11,4
COC(=O)c1cc(C(=O)OC)cc(N2C(=O)CN=C2Nc2nc(C)cc(C)n2)c1,-2.7,2.4%,-0.4,6,-9,-14
CCOC(=O)C1=C2c3cc(OC)c(OC)cc3CC(C)(C)N2C(=O)C1=O,-4.6,0.8%,-0.1,2,-13,-1
CCN1C(=O)[C@@H]2[C@@H]3CN(S(=O)(=O)c4ccccc4C)[C@@H](c4ccc(Cl)cc4)[C@@H]3C(=O)C[C@@H]2C1=O,-4.0,1.2%,-0.1,2,-4,1
c1ccc(-c2ncc(-c3ccn[nH]3)s2)cc1,10,0.1%,-0.6,0,-4,.
Cc1ccc(SC(C)C(=O)NC2CC2)cc1 (configuration not stated),-4.0,1.2%,-0.7,8,-9,4
O=C(Cn1nc(C(=O)O)c2ccccc2c1=O)Nc1ccc2c(c1)OCO2,0.6,3.1%,1.9,2,-2,-1
CC(=O)c1cccc(NC(=S)N2CCN(S(C)(=O)=O)CC2)c1,-3.7,-0.5%,1.5,0,-10,3
Cc1c(C)n(CC(O)CN2CCCCCC2)c2ccccc12 (configuration not stated),-0.5,-1.2%,0.4,-11,-31,-13
Cn1c(=O)cc(SCC(=O)NCCCN2CCN(c3ccccc3F)CC2)c2ccccc21,?,2.3%,0.2,-4,-3,-9
COc1cccc(/C=C/C(=O)NNC(=O)c2ccncc2)c1OC,-0.2,1.5%,-0.4,-4,-2,.
O=C(CCN1C(=O)/C(=C\c2ccccc2)SC1=S)N1CCOCC1,0.5,7.4%,-0.6,-3,-8,-14
O=c1[nH]c(/C=C/c2ccc(Br)cc2)nc2ccccc12,-2.4,4.4%,1.0,-10,-5,-9
C=CCOc1ccc(CN(C)C(=O)C2CCCO2)cc1 (configuration not stated),-4.2,0.9%,0.1,2,-3,-1
COc1ccc(C(C)=O)cc1CSCCC(=O)O,-1.2,-1.9%,-0.6,1,-6,-2
Cc1ccccc1-n1nc(C)c2c(C(=O)NN)cc(-c3ccncc3)nc21,-0.3,-1.4%,2.5,-1,-24,0
Nc1ncc(Br)cc1S(=O)(=O)NCCc1ccccc1,7.3,2.2%,0.9,1,0,8
c1ccc(Nc2ccccn2)nc1,-0.5,0.1%,0.5,-8,-10,?
COc1cc(OC)cc(C(=O)NCCCn2ccnc2)c1,1.1,0.5%,-0.2,5,-17,0
CC1CC(C)CN(S(=O)(=O)N2CCCC(C(=O)NC3CCCCC3C)C2)C1 (configuration not stated),-2.3,1.1%,-0.9,-1,-21,-9
COc1ccc(S(=O)(=O)N/N=C\c2ccc([N+](=O)[O-])o2)c(OC)c1,-2.5,-0.5%,-0.5,-10,-6,-4

# Just CtBP-E1A inh and D2 ag, for two of the compounds above:
structure	CtBP-E1A inh	D2 ag
COc1cccc(/C=C/C(=O)NNC(=O)c2ccncc2)c1OC	.	-0.2
O=C(CCN1C(=O)/C(=C\c2ccccc2)SC1=S)N1CCOCC1	-14	0.5

# The list goes on:
SMILES,D2 ag,PINK1 modulator,TRPML1 ag,Six1-Eya2 inh,D2 potentiator,CtBP-E1A inh
CCc1ccc(-c2csc(NC(=O)Oc3ccccc3)n2)cc1,-0.8,1.2%,2.1,4,-3,2
COc1cc(/C=C2/C(=N)N3N=C(CC(=O)N4CCOCC4)SC3=NC2=O)ccc1OCc1ccc(F)cc1,-2.8,0.4%,1.2,-1,-9,-17
Cc1c(C(=O)N2CCOCC2)c(S(=O)(=O)Nc2ccccc2)c(C)n1C,-6.6,-0.8%,1.0,-2,-9,.
O=C1c2ccccc2NC(c2ccc(-c3cccc([N+](=O)[O-])c3)o2)N1O (configuration not stated),2.5,-3.0%,1.4,1,-6,2
CNC(=O)c1ccsc1NC(=O)CS(=O)(=O)c1ccc(F)cc1,-3.0,-0.6%,-0.1,1,-16,-2
C[N+]1(CC(O)COc2ccccc2)CCN(C(=O)c2ccc([N+](=O)[O-])cc2)CC1 (configuration not stated),-2.8,3.6%,0.3,17,-1,-5
Cc1cccc(NC(=S)NNC(=O)c2ccco2)c1,-7.4,13%[38.3 µM],0.2,-16,-19,-22
O=C(O)C1CCC(=O)N(C2CC2)C1c1ccccc1 (configuration not stated),-2.0,0.3%,0.2,6,-5,6
CCOc1ccc(-n2c(-c3ccco3)nc3c(cnn3-c3ccc(C)cc3)c2=O)cc1,-6.9,9.7%,0.3,-7,-2,5
CCOC(=O)CC(NC(=O)c1cc2ccccc2oc1=O)c1cccc([N+](=O)[O-])c1 (configuration not stated),-5.0,2.6%,0.1,4,-10,10
CCSc1nnc(NC(=O)CSc2nnc(CNC(=O)c3ccc(OC)cc3)o2)s1,-0.9,7.3%,2.0,5,-7,-2
Cc1ccc(C)c(N2CCN(C(=O)C3CCCCN3S(=O)(=O)c3ccc(F)cc3)CC2)c1 (configuration not stated),-3.1,0.2%,1.3,-5,7,4
COC(=O)c1ccccc1NC(=O)NCc1ccco1,-4.5,-2.6%[38.3 µM],0.5,-2,-14,-10
O=C(Nc1ccnn1C1CCN(C(=O)c2ccc(Cl)c(F)c2)CC1)C1CCOC1 (configuration not stated),-0.9,-1.5%,0.6,3,-6,-1
O=C(CN1CCN(c2cccc(C(F)(F)F)c2)CC1)Nc1ccc2c(c1)OCCCO2,-2.3,-0.8%,-0.9,-2,-19,5
O=C(Cn1cnc2sc3c(c2c1=O)CCCC3)NCC(=O)Nc1c(F)cc(F)cc1Br,-11,-0.2%,-0.9,2,-6,6
O=C(O)c1ccccc1-c1ccccc1C(=O)Nc1ccccc1,-0.1,-0.5%,-0.2,4,16,0
CCSC(=Nc1ccccc1)Nc1ccccc1,1.7,10%,-0.2,1,-5,20
O=S1(=O)CCC(NS(=O)(=O)c2cccc3cccnc23)C1 (configuration not stated),-1.1,-0.5%,0.6,-7,12,-3
Cc1cccc(-c2nnn(Cc3nnc(NC(=O)c4ccccc4)s3)n2)c1,-11,0.0%,0.6,8,-15,-2
N=c1n(Cc2ccccc2)c2ccccc2n1CC(O)COc1ccccc1 (configuration not stated),-2.0,0.3%[38.3 µM],-0.3,-3,-18,-7
Cc1cc(Cl)ccc1OCC(=O)NNC(=O)CCOc1ccccc1,-1.4,2.2%,0.5,4,-3,7
CC(C)(C)[C@H]1COC(=O)CCC/C=C/C[C@H](CC(=O)NCCO)C(=O)N1,-1.0,0.4%,-0.6,6,-8,3
